Mtb H37Rv: Mycobacterium tuberculosis H37Rv growth inhibition, putative kinase inhibitor library, confirmatory dose response (AID 2842); M. tuberculosis H37Rv growth inhibition; higher % means a stronger effect; some inactives read as strong as hits; one-dose inhibition, % at 10 µg/mL; IC90 in µg/mL for titrated hits; actives 5.2% (n = 24,000);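 active = confirmed in a dose series; inconclusive = mostly over 85% at the one dose but not retested; inactive = below 85% or not confirmed; about a fifth of its hits are not listed in these tables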;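 also: bacteria incubated one week before Alamar blue readout; 0% = bacteria only wells and 100% = bacteria with high antibiotic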
The depositor's hits bear a star; ? = inconclusive.

Preview (4 entries):
SMILES	Mtb H37Rv
Cc1ccc(C)c(S(=O)(=O)Nc2ccc(C(=O)N3CCOCC3)cc2)c1	-14%
C#CCn1c(=NC(=O)c2ccc(F)cc2)sc2cc(NC(C)=O)ccc21	13%
COc1ccccc1C(=O)Nc1nnc(-c2cc(C)ccc2C)o1	1.9µg/mL*
O=c1c2cnn(CCO)c2ncn1Cc1cccc(Cl)c1	0%

Main list (from the top)
SMILES	Mtb H37Rv
Cc1ccc(C)c(S(=O)(=O)Nc2ccc(C(=O)N3CCOCC3)cc2)c1	-14%
C#CCn1c(=NC(=O)c2ccc(F)cc2)sc2cc(NC(C)=O)ccc21	13%
COc1ccccc1C(=O)Nc1nnc(-c2cc(C)ccc2C)o1	1.9µg/mL*
O=c1c2cnn(CCO)c2ncn1Cc1cccc(Cl)c1	0%
COc1ccc(NC(=O)C2=C(C)Nc3ncnn3C2c2ccc(C#N)cc2)cc1 (configuration not stated)	-2%
CCOC(=O)c1c(NC(=S)NC(=O)c2ccc(C(=O)OC)cc2)sc(C)c1C	9%
COc1cc([N+](=O)[O-])ccc1NC(=O)COc1ccc(Cl)cc1	1%
NC(=O)c1nc(-c2ccc(C(F)(F)F)cc2)nc2c1[nH]c(=O)n2-c1ccc(F)cc1	-8%
O=C1NC(=Nc2cccc(O)c2)S/C1=C\c1ccc(F)cc1	-2%
O=C(CSc1nc2c(c(=O)n1-c1ccc(F)cc1)SCC2)Nc1cccc(C(F)(F)F)c1	8%
O=C(COc1ccc2ccccc2c1)NCC1COC2(CCCC2)O1 (configuration not stated)	16%
Cc1cc2c(c(=O)n1CCO)C(c1ccc(F)cc1)C(C#N)=C(N)O2 (configuration not stated)	-21%
O=C(Nc1cccc(-c2ccc3nncn3n2)c1)C1CCCO1 (configuration not stated)	-3%
COc1cccc(OCCNc2cc(Cl)ccc2[N+](=O)[O-])c1	-11%
CC1CCCCN1S(=O)(=O)c1ccc(C(=O)Nc2nc3ccc4ccccc4c3s2)cc1 (configuration not stated)	?
Oc1ccc(Nc2ncnc3scc(-c4ccc(Cl)cc4)c23)cc1	1%
COC(=O)c1c(NC(=O)c2cccc(C(F)(F)F)c2)sc2c1CC(C)(C)NC2(C)C	99%
NC(=O)CSc1ccc(-c2ccc(Cl)cc2)nn1	85%
COc1ccc(CC(=O)Nc2nnc(-c3ccc(Cl)cc3)s2)cc1	3%
Cc1ccc(C2=CC(c3cccc(Br)c3)n3ncnc3N2)cc1 (configuration not stated)	25%

3 records picked at random from the list so far, as already listed:
SMILES	Mtb H37Rv
COc1ccccc1C(=O)Nc1nnc(-c2cc(C)ccc2C)o1	1.9µg/mL*
O=C(CSc1nc2c(c(=O)n1-c1ccc(F)cc1)SCC2)Nc1cccc(C(F)(F)F)c1	8%
Cc1ccc(C)c(S(=O)(=O)Nc2ccc(C(=O)N3CCOCC3)cc2)c1	-14%

(cont.)
SMILES	Mtb H37Rv
O=C(Nc1c(C(=O)Nc2ccc([N+](=O)[O-])cc2)oc2ccccc12)c1ccc(Cl)cc1Cl	2%
Nc1ncnc(Nc2cc(Cl)ccc2Cl)c1[N+](=O)[O-]	-4%
O=C1NC2=C(C(=O)N(CCO)C2)C(c2ccc(Cl)cc2)N1 (configuration not stated)	-6%
Cc1ccc(-c2c3c(nc4sc(C(=O)Nc5ccc(Oc6ccccc6)cc5)c(N)c24)CCCC3)o1	61%
COC(=O)c1ccccc1NS(=O)(=O)c1ccc2c(c1)C(=O)c1ccccc1C2=O	-9%
CCOC(=O)c1ccc(NC(=O)c2ccccc2-c2ccccc2C(=O)O)cc1	0%
COC(=O)c1c(NC(=O)c2ccccc2Oc2ccccc2)sc2c1CC(C)(C)NC2(C)C	37µg/mL*
CCOC(=O)C(C)Sc1nc2c(c(=O)[nH]c(=O)n2C)n1CC(O)COc1ccc(Cl)cc1 (configuration not stated)	0%
CCc1nc(SCc2cccnc2)c2c(=O)n(C)c(=O)n(C)c2n1	-5%
Cc1nn(-c2cccc(Cl)c2)c(C)c1Sc1n[nH]c(=O)[nH]c1=O	-2%
Cn1c(=O)c2c(SCC(=O)N3CCN(c4ccccc4)CC3)nc(-c3cccs3)nc2n(C)c1=O	-2%
O=C(CSc1ccc2nnc(-c3cccnc3)n2n1)Nc1nc2ccccc2s1	-7%
CCOc1ccc(C(=O)Nc2cc(C)c3c(=O)oc4ccccc4c3n2)cc1	1%
O=C(/C=C/c1ccc2c(c1)OCO2)Nc1c(C(=O)Nc2ccc(F)c(Cl)c2)oc2ccccc12	-5%
COc1ccc(-c2nnc(NC(=O)C3CCN(S(=O)(=O)c4ccc(F)cc4)CC3)o2)cc1	4%
Oc1ccc2ccccc2c1N=Nc1nn[nH]n1	<0.2µg/mL*
COc1ccc(OC)c2[nH]c(=O)c(CCNC(=O)c3cc4ccccc4oc3=O)cc12	2%
O=C(Nc1ccc(O)c(-c2nc3ccccc3s2)c1)c1ccno1	-4%
Cc1ccc(-c2nnc(NC(=O)c3ccc(S(=O)(=O)N4CCCc5ccccc54)cc3)o2)c(C)c1	-6%
Cc1ccc2[nH]c(=O)c(C3=NN(C(=O)c4cccs4)C(c4ccco4)C3)c(-c3ccccc3)c2c1 (configuration not stated)	0%
O=C1NC(=Nc2ccccc2)S/C1=C\c1ccc(-c2cccc(C(=O)O)c2)o1	-2%
Cc1ccnc(SCc2cc(=O)c(OC(=O)c3ccc(S(=O)(=O)N4CCCC4)cc3)co2)n1	2%
COc1ccc(S(=O)(=O)Nc2cc(Sc3ncn[nH]3)c(O)c3ccccc23)cc1	3%
CC(=O)c1ccc(N2C(=O)CC(Nc3ccc(N4CCOCC4)cc3)C2=O)cc1 (configuration not stated)	-7%
CN=C1SC(CC(=O)Nc2ccccc2F)C(=O)N1C (configuration not stated)	5%
O=C(CSc1ccc2nnc(-c3ccccn3)n2n1)Nc1ccc2c(c1)OCCO2	-3%
COc1cc(OC)cc(C(=O)NC(=S)Nc2cccc(-c3nc4ccccc4[nH]3)c2)c1	-6%
Cc1ccc(C(=O)Nc2nnc(-c3ccncc3)o2)cc1C	27µg/mL*
O=C(Nc1cccc(Cl)c1Cl)c1cnc2n(c1=O)CCS2	1%
CCC(CC)C(=O)Nc1nnc(-c2ccc(Cl)cc2)s1	3%
NC1=NC(=O)/C(=C/c2ccc3c(c2)OCO3)S1	2%
O=C(CCc1n[nH]c(=O)[nH]c1=O)N/N=C/c1ccc(Cl)cc1	-10%
Cc1cccc(NC(=O)CSc2ccc3nnc(-c4cccnc4)n3n2)c1	-6%
O=C(Nc1cc(Cl)c(Cl)cc1Cl)c1cnc2n(c1=O)CCS2	8%
CCOC(=O)c1c(NC(=O)CSc2nnc(-c3cccnc3)o2)sc2c1CCC2	-3%
Cc1ccc(-c2csc(NC(=O)c3ccc(S(=O)(=O)N4CCCCC4)cc3)n2)c(C)c1	4%
CCOC(=O)c1cc2c(=O)n3ccccc3nc2n(CCc2ccccc2)c1=NC(=O)c1ccco1	12%
O=C(/C=C/c1ccccc1)Nc1nc2ccc(S(=O)(=O)N3CCCC3)cc2s1	3%
COC(=O)c1ccc(CSc2nnc(-c3ccncc3)o2)cc1	84%
Nc1c(-c2nc(-c3ccncc3)no2)nnn1-c1ccc(Cl)cc1	-5%

Reformatted: results already given.
| structure | Mtb H37Rv |
| --- | --- |
| O=C(CCc1n[nH]c(=O)[nH]c1=O)N/N=C/c1ccc(Cl)cc1 | -10% |
| Cc1cccc(NC(=O)CSc2ccc3nnc(-c4cccnc4)n3n2)c1 | -6% |
| O=C(Nc1cc(Cl)c(Cl)cc1Cl)c1cnc2n(c1=O)CCS2 | 8% |
| CCOC(=O)c1c(NC(=O)CSc2nnc(-c3cccnc3)o2)sc2c1CCC2 | -3% |
| Cc1ccc(-c2csc(NC(=O)c3ccc(S(=O)(=O)N4CCCCC4)cc3)n2)c(C)c1 | 4% |
| CCOC(=O)c1cc2c(=O)n3ccccc3nc2n(CCc2ccccc2)c1=NC(=O)c1ccco1 | 12% |
| O=C(/C=C/c1ccccc1)Nc1nc2ccc(S(=O)(=O)N3CCCC3)cc2s1 | 3% |

Next compounds.
SMILES	Mtb H37Rv
O=C(N/N=C\c1ccco1)c1cc([N+](=O)[O-])cc([N+](=O)[O-])c1	-16%
Cn1c(=O)c2c(nc(N3CCCC3)n2CCSc2ncccn2)n(C)c1=O	0%
CC(=O)Nc1nnc(SCC(=O)Nc2nnc(C)s2)s1	12%
COc1ccc(C(=O)CSc2nnc3ccc(-c4cccc(OC)c4)nn23)cc1	-3%
O=C(/C=C/c1ccccc1)Nc1nc2c(s1)COc1ccccc1-2	6.8µg/mL*
COc1ccc(F)cc1S(=O)(=O)Nc1cc2c3c(c1)CCN3C(=O)CC2	-2%
Cc1ccc(C)c(/C(O)=C2/C(=O)C(=O)N(CCCn3ccnc3)C2c2cccc(Cl)c2)c1 (configuration not stated)	-3%
O=C1C(=O)N(CNc2cccnc2)c2ccccc21	-7%
O=C(CCCS(=O)(=O)c1ccc(F)cc1)Nc1nnc(-c2cccs2)o1	10%
Cc1cccc(-c2nc(Nc3cccc(C(=O)O)c3)c3ccccc3n2)c1	67%
O=C(Cc1ccc(F)cc1)Nc1c2c(nn1-c1ccc(Cl)cc1)CSC2	33%
CCN(CC)S(=O)(=O)c1ccc(C(=O)Nc2nc(-c3ccc4c(c3)CCCC4)cs2)cc1	79%
Nn1c(SCC(=O)NCc2ccc(F)cc2)nncc1=O	-7%
COc1cc2c(=O)c(C(=O)c3ccc(Cl)cc3)cn(Cc3cccc(C)c3)c2cc1OC	-6%
Cn1c(=O)c2c(SCC(=O)Nc3ccc(Br)cc3)nc(-c3cccs3)nc2n(C)c1=O	3%
Cc1ccc(NC(=O)c2oc3ccccc3c2NC(=O)c2ccco2)cc1C	1%
Nc1nc2ccc(S(=O)(=O)N3CCCCC3)cc2s1	10%
Clc1ccc2nc(N/N=C/c3cn(-c4ccccc4)nc3-c3ccccc3)cc(-c3ccccc3)c2c1	15%
CC(=O)c1ccc(C(=O)Nc2sc(Cc3ccc4c(c3)OCO4)c(C)c2C#N)cc1	-3%
CC(=O)N1CCc2c(sc(NC(=O)C3CC3)c2C(N)=O)C1	2%
COc1ccc(CNc2nccn(-c3cc(C)cc(C)c3)c2=O)cc1OC	7%
Cn1c(NC(=O)Cc2ccccc2)cc(=O)n(C)c1=O	-8%
CCCC(=O)Nc1cc(C)c2c(=O)oc3ccccc3c2n1	-1%
Cc1ccc(C(=O)c2cn(CC(=O)Nc3ccc(F)c(F)c3)c3ccc(F)cc3c2=O)cc1	-1%
Cc1cc(C)c(-c2csc(NC(=O)c3ccc(S(=O)(=O)N4CCCCC4C)cc3)n2)c(C)c1 (configuration not stated)	12%
Cn1cnnc1Sc1nc2c(c(=O)[nH]c(=O)n2C)n1Cc1ccc(Cl)cc1	-13%
CC(=O)Nc1nc2ccc(S(C)(=O)=O)cc2s1	7%
COc1ccccc1-c1nnc(NC(=O)CSc2ccccc2)s1	0%
Cc1c(C)n2c3c(=O)[nH]c(=O)n(C)c3nc2n1-c1ccc(S(N)(=O)=O)cc1	-8%
c1ccc(Nc2nc(NC3CCCC3)nc3nccnc23)cc1	62%
CN(C)CCNc1nc2c(c(=O)[nH]c(=O)n2C)n1CCCOc1ccccc1	-6%
CC(C)(C)n1nc2c(c1NC(=O)/C=C\c1ccc3c(c1)OCO3)CSC2	-6%
COc1ccc2nc(N3CCOCC3)sc2c1	5%
Cc1ccc(-c2nnc3ccc(SCC(=O)Nc4cccc(F)c4)nn23)cc1	0%
CC(Nc1nc2c(c(=O)[nH]c(=O)n2C)n1Cc1ccccc1)c1ccccc1 (configuration not stated)	-4%
CCC1CCCCN1S(=O)(=O)c1ccc(C(=O)Nc2sccc2C(N)=O)cc1 (configuration not stated)	-10%
COc1ccc(CC(=O)NCCc2cc3cc(C)c(C)cc3[nH]c2=O)cc1OC	-10%
COc1cc(OC)cc(C(=O)Nc2ccc3c(c2)nc(C)n3-c2ccccc2)c1	74%
O=C(Nc1c(C(=O)Nc2ccc3c(c2)OCO3)oc2ccccc12)c1ccc(-c2ccccc2)cc1	-11%
C=C(C)Cn1c(N2CCN(Cc3ccccc3C)CC2)nc2c1c(=O)[nH]c(=O)n2C	4%
Cc1ccc(C)c2[nH]c(=O)c(CCNC(=O)c3ccc4c(c3)OCO4)cc12	1%
COc1ccc2nc(-c3ccc(C)c(NC(=O)C4CCCC4)c3)cn2n1	-2%
Cc1ccc(C(=O)Nc2c(N)nc(SCC(=O)N3CCCc4ccccc43)[nH]c2=O)cc1	-4%
O=C(O)c1cc(-c2ccc(O)cc2)n[nH]1	-3%
NC(=O)c1ccc(NC(=O)C(=O)Nc2cccc(N3CCCC3=O)c2)cc1	8%
O=C(NCCS(=O)(=O)N1CCCCC1)c1ccc2c(c1)OCO2	-6%
CCOC(=O)c1nn(-c2ccc(C(F)(F)F)cc2)c(=O)c2c(NC(=O)c3ccc(S(=O)(=O)N4CCCCC4)cc3)scc12	4%
COc1ccc(OC)c2[nH]c(=O)c(CCNC(=O)c3ccc(Cl)c([N+](=O)[O-])c3)cc12	2%
O=C1CC(c2nc3ccccc3n2Cc2ccccc2Cl)CN1c1ccccc1F (configuration not stated)	18µg/mL*
O=C(Nc1nnc(-c2ccc(Br)cc2)o1)c1cc2cc([N+](=O)[O-])ccc2s1	-3%

Continuation:
SMILES	Mtb H37Rv
Cc1cc(=O)[nH]c2nc(N)ccc12	19%
Cc1ccc(C)c(CSc2nc(N)c(NC(=O)c3ccc(F)c(F)c3)c(=O)[nH]2)c1	-3%
O=C(Nc1nnc(-c2ccncc2)o1)c1cc(Cl)cc(Cl)c1	82%
O=C1C(Cl)=C(NC2CCCCC2)C(=O)N1c1ccc(Cl)cc1	3%
Cc1ccc(NC(=O)CSc2ccc3nnc(-c4ccccc4)n3n2)cc1Cl	2%
O=C1c2oc3ccc(Cl)cc3c(=O)c2C(c2cccnc2)N1c1ccccn1 (configuration not stated)	14%
O=C1c2ccncc2C(=O)N1CNc1ccc(Br)cc1	64%
CCCc1cc(=O)[nH]c2nnc(SCC(=O)NC3CCCC3)n12	2%
O=C(Nc1nnc(-c2ccccc2)s1)c1ccc(Cc2ccccc2)cc1	6%
CCc1ccc(OCCCC(=O)Nc2nnc(C(C)C)s2)cc1	-9%
COc1ccc(SCCC(=O)Nc2ccc3c(c2)C(=O)NC3=O)cc1	-2%

Screening data (PubChem BioAssay)

These rows are one share of the data; count on the stated rates, not on these rows.
